NOMO-1 viab – STK33 inhibitor candidate reducing NOMO-1 cell viability; AID 2330; NOMO-1 AML viability, CellTiter-Glo luminescence, 72 h; hit rate 7.5% among 37,000; inhibition, % (concentration not given with the values);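 active = most replicates above 80%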;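 also: wells of about 30 µL received 25 nL stock; 0% = median of vehicle wells and 100% = reference inhibitor level; the first replicate is given; inactives centre near 10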
Active calls of the source: *. This is a subset; the hit share may differ from the screen's.

Molecule	NOMO-1 viab
C[C@@H]1CN([C@@H](C)CO)C(=O)c2cc(NS(=O)(=O)c3ccccc3)ccc2O[C@@H]1CN(C)C(=O)Nc1ccc(F)cc1	3
C[C@H](CO)N1C[C@H](C)[C@@H](CN(C)Cc2ccc(Cl)c(Cl)c2)Oc2ccc(NC(=O)CCN3CCOCC3)cc2C1=O	11
Cc1noc(C)c1NC(=O)Nc1cccc2c1O[C@H](CN(C)Cc1ccncc1)[C@@H](C)CN([C@@H](C)CO)C2=O	7
Cc1noc(C)c1NC(=O)Nc1cccc2c1O[C@@H](CN(C)Cc1ccc(Cl)c(Cl)c1)[C@H](C)CN([C@@H](C)CO)C2=O	23
C[C@@H]1CCCCO[C@@H](CN(C)S(C)(=O)=O)[C@@H](C)CN([C@H](C)CO)C(=O)c2cc(NS(=O)(=O)c3ccc(Cl)cc3)ccc2O1	9
CC(C)NC(=O)Nc1cccc2c1O[C@H](CN(C)Cc1ccncc1)[C@H](C)CN([C@H](C)CO)C2=O	-5
Cc1ccc(S(=O)(=O)Nc2ccc3c(c2)C(=O)N([C@H](C)CO)C[C@@H](C)[C@@H](CN(C)Cc2ccncc2)O3)cc1	9
COC(=O)Cc1c(C)nc2nc(NCc3ccccc3)[nH]n2c1=O	30
C[C@@H]1CN([C@H](C)CO)C(=O)c2cccc(NC(=O)Nc3ccc4c(c3)OCO4)c2O[C@@H]1CN(C)Cc1ccc(C(F)(F)F)cc1	44
CC1=CCC2[C@](C)(CCC[C@]2(C)C(=O)O)[C@H]1CCc1ccoc1 (stereo partly specified)	10
C[C@@H]1CN([C@H](C)CO)C(=O)Cc2cc(NC(=O)Nc3ccc4c(c3)OCO4)ccc2O[C@H]1CN(C)Cc1ccc(C(=O)O)cc1	21
COc1ccc(NC(=O)Nc2cccc3c2O[C@H](CN(C)Cc2ccccc2)[C@@H](C)CN([C@H](C)CO)C3=O)cc1	76
COc1ccc(Cl)cc1NC(=O)C(C)NS(=O)(=O)c1ccc(Br)cc1 (stereo unspecified)	14
CC(C)(C)N1NC2(CCCCC2)NC1=S	-19
Cc1noc(C)c1S(=O)(=O)N(C)C[C@@H]1Oc2ccc(NC(=O)Nc3ccc(F)cc3)cc2CC(=O)N([C@H](C)CO)C[C@@H]1C	7
C[C@@H]1CN([C@@H](C)CO)C(=O)c2cc(NC(=O)CCN3CCOCC3)ccc2O[C@@H]1CN(C)Cc1ccc(-c2ccccc2)cc1	45
C[C@@H]1CN([C@@H](C)CO)C(=O)Cc2cc(NS(=O)(=O)c3cccs3)ccc2O[C@@H]1CN(C)C(=O)Nc1cccc2ccccc12	26
COC(=O)C(C)Sc1nc(N2CCOCC2)nc(N2CCOCC2)n1 (stereo unspecified)	22
C[C@@H]1CN([C@H](C)CO)C(=O)c2cc(NC(=O)CCCN(C)C)ccc2O[C@@H]1CN(C)C	-12
O=C(COc1ccc(Br)cc1Cl)NCc1cccnc1	18
COc1ccc(S(=O)(=O)N(C)CC(=O)Nc2cccc(Cl)c2C)cc1C	-4
C[C@H](CO)N1C[C@H](C)[C@@H](CN(C)S(=O)(=O)c2ccc(Cl)cc2)Oc2ccc(NS(=O)(=O)c3cn(C)cn3)cc2C1=O	13
C[C@H]1CN([C@@H](C)CO)C(=O)c2cc(NC(=O)CCN3CCOCC3)ccc2O[C@H]1CN(C)S(=O)(=O)c1ccccc1	1
C[C@H]1CN([C@@H](C)CO)C(=O)Cc2cc(NS(=O)(=O)c3ccccc3)ccc2O[C@@H]1CN(C)S(=O)(=O)c1ccc(Cl)cc1	8
COc1ccc(NC(=O)Nc2ccc3c(c2)CC(=O)N([C@@H](C)CO)C[C@H](C)[C@@H](CN(C)S(=O)(=O)c2cn(C)cn2)O3)cc1	-13
Cn1c(SCc2ccc(C(F)(F)F)cc2)nnc1-c1ccc(OCC(F)(F)F)nc1	28
C[C@@H]1CN([C@@H](C)CO)C(=O)c2cccc(NS(=O)(=O)c3cccs3)c2O[C@H]1CN(C)Cc1ccc(Oc2ccccc2)cc1	23
CCOC(=O)Nc1ccc2c(c1)N(C(=O)CCN1CCOCC1)c1ccccc1CC2	-4
CCn1c(SCC(=O)Nc2ccccc2F)nnc1-c1ccccc1F	-2
C[C@@H]1CN([C@@H](C)CO)C(=O)Cc2cc(NS(=O)(=O)c3ccc(F)cc3)ccc2O[C@@H]1CN(C)Cc1ccc(Oc2ccccc2)cc1	122*

Four structures already listed, ordered by length of the SMILES, falling:
Molecule	NOMO-1 viab
C[C@@H]1CN([C@@H](C)CO)C(=O)Cc2cc(NS(=O)(=O)c3ccc(F)cc3)ccc2O[C@@H]1CN(C)Cc1ccc(Oc2ccccc2)cc1	122*
C[C@@H]1CN([C@@H](C)CO)C(=O)c2cc(NS(=O)(=O)c3ccccc3)ccc2O[C@@H]1CN(C)C(=O)Nc1ccc(F)cc1	3
C[C@@H]1CN([C@H](C)CO)C(=O)c2cc(NC(=O)CCCN(C)C)ccc2O[C@@H]1CN(C)C	-12
COC(=O)C(C)Sc1nc(N2CCOCC2)nc(N2CCOCC2)n1 (stereo unspecified)	22

Going on with the list.
Molecule	NOMO-1 viab
Cc1cccc(OCCCC(=O)Nc2sc3c(c2C(N)=O)CCCC3)c1C	5
CNC[C@H]1Oc2ccc(NS(=O)(=O)c3cn(C)cn3)cc2C(=O)N([C@H](C)CO)C[C@@H]1C	18
COC(=O)c1c(NC(=O)c2ccc(NS(C)(=O)=O)cc2)sc2c1CCCC2	27
CCOC(=O)c1cnc(SCC(=O)Nc2ccccc2C)nc1N	14
COc1ccc(S(=O)(=O)Nc2cccc3c2O[C@@H](CN(C)C(=O)Nc2ccc(F)cc2)[C@@H](C)CN([C@@H](C)CO)C3=O)cc1	16
C[C@@H]1CCCCO[C@H](CN(C)C(=O)CCC(F)(F)F)[C@@H](C)CN([C@H](C)CO)C(=O)c2cc(NC(=O)Nc3ccccc3)ccc2O1	18
COc1ccccc1N(CC(=O)Nc1cccc([N+](=O)[O-])c1C)S(C)(=O)=O	9
COc1ccccc1CNC(=O)c1cc(-c2ccccn2)nc2c(Cl)cccc12	92*
C[C@H]1CN([C@@H](C)CO)C(=O)c2cccc(NC(=O)Nc3ccc4c(c3)OCO4)c2O[C@H]1CN(C)Cc1ccc(C(=O)Nc2ccccc2N)cc1	140*
Cc1noc(C)c1S(=O)(=O)Nc1ccc2c(c1)CC(=O)N([C@@H](C)CO)C[C@H](C)[C@H](CN(C)Cc1ccc(Oc3ccccc3)cc1)O2	15
COc1ccc(NC(=O)Nc2cccc3c2O[C@@H](CN(C)C(=O)Nc2ccc4c(c2)OCO4)[C@H](C)CN([C@@H](C)CO)C3=O)cc1	0
COc1ccc(C)cc1S(=O)(=O)N(C)CC(=O)O	13
Cc1ccc(S(=O)(=O)N(C)C[C@@H]2Oc3c(NS(=O)(=O)c4ccc(F)cc4)cccc3C(=O)N([C@H](C)CO)C[C@H]2C)cc1	-2
C=C1C(=O)O[C@@H]2/C=C(\CO)CCC/C(C)=C/[C@H](O)C12 (stereo partly specified)	116*
O=C(CSc1nc2ccccc2s1)NO	21
CC[N+]1=C(C)C(C)(C)c2cc(-c3ccccc3)ccc21	123*
COc1cc(C(Nc2ccccn2)c2cc(Cl)c3cccnc3c2O)cc(Br)c1O (stereo unspecified)	48
C[C@H]1CN([C@@H](C)CO)C(=O)c2cc(NS(=O)(=O)c3cn(C)cn3)ccc2O[C@@H]1CN(C)C(=O)Nc1cccc2ccccc12	12
C[C@@H]1CN([C@H](C)CO)C(=O)Cc2cc(NS(=O)(=O)c3ccc(F)cc3)ccc2O[C@H]1CN(C)C(=O)Nc1ccc(F)cc1	6
CCn1c(Sc2ncnc3c2sc2nc(C)cc(C)c23)nnc1-c1cccs1	104*
CSc1ccccc1NC(=O)CN(C)S(=O)(=O)c1ccc(Br)cc1	-15
COc1ccc(S(=O)(=O)Nc2ccc3c(c2)CC(=O)N([C@H](C)CO)C[C@@H](C)[C@@H](CN(C)S(C)(=O)=O)O3)cc1	2
COCc1nc2ccccc2n1CCOc1ccc(Br)cc1	29
C[C@H]1CN([C@@H](C)CO)C(=O)Cc2cc(NC(=O)c3ccncc3)ccc2O[C@@H]1CN(C)C(=O)Nc1ccc(C(F)(F)F)cc1	1
COc1ccc(NC(=O)N(C)C[C@@H]2Oc3ccc(NC(=O)Nc4ccccc4)cc3C(=O)N([C@H](C)CO)C[C@@H]2C)cc1	17
CC(C)NC(=O)Nc1cccc2c1O[C@@H](CN(C)C)[C@@H](C)CN([C@@H](C)CO)C2=O	-2
C[C@@H]1CN([C@H](C)CO)C(=O)Cc2cc(NC(=O)Nc3cccc4ccccc34)ccc2O[C@H]1CN(C)Cc1ccc(C(=O)O)cc1	1
COc1ccc(NC(=O)Nc2ccc3c(c2)C(=O)N([C@H](C)CO)C[C@@H](C)[C@@H](CN(C)S(=O)(=O)c2ccc(OC)cc2)O3)cc1	-2
O=C(C[n+]1ccc(/C=N/O)cc1)N1CCCCC1	3
O=C(COc1cccc(-c2cnc3ccccc3n2)c1)c1ccccc1	17
C[C@@H]1CCCCO[C@H](CN(C)C(=O)C2CCCCC2)[C@@H](C)CN([C@H](C)CO)C(=O)c2cc(NC(=O)Nc3ccccc3)ccc2O1	35
CC(C)c1ccc(OCC(=O)Nc2cc(C(F)(F)F)ccc2N2CCOCC2)cc1	29
C[C@@H]1CCCCO[C@H](CN(C)Cc2ccc(C(=O)O)cc2)[C@@H](C)CN([C@H](C)CO)C(=O)c2cc(NS(=O)(=O)c3cn(C)cn3)ccc2O1	17
NNC(=O)CC12CC3CC(CC(C3)C1)C2	23
C[C@H]1CN([C@@H](C)CO)C(=O)c2cccc(NS(C)(=O)=O)c2O[C@H]1CN(C)Cc1ccc(C(=O)O)cc1	0
C[C@H](CO)N1C[C@H](C)[C@H](CN(C)Cc2ccc(-c3ccccc3)cc2)Oc2ccc(NC(=O)Nc3ccc(C(F)(F)F)cc3)cc2C1=O	92*
C[C@H](CO)N1C[C@H](C)[C@@H](CN(C)S(=O)(=O)c2ccc(Cl)cc2)Oc2c(NC(=O)NC3CCCCC3)cccc2C1=O	20
O=Nc1c(-c2c(O)[nH]c3ccc(S(=O)(=O)O)cc23)[nH]c2ccccc12	-11
Cc1ccc(S(=O)(=O)NCCC(=O)Oc2ccc3c(=O)c(-c4ccc(F)cc4)coc3c2)cc1	20
N#C/C(=C/c1ccc(O)c(O)c1)C(=O)OC/C=C/c1ccccc1	99*
C[C@@H]1CN([C@H](C)CO)C(=O)Cc2cc(NS(=O)(=O)c3ccc(F)cc3)ccc2O[C@@H]1CN(C)C(=O)Nc1ccc(F)cc1	0
C[C@H]1CN([C@@H](C)CO)C(=O)c2cccc(NC(=O)Nc3ccc4c(c3)OCO4)c2O[C@H]1CN(C)C(=O)Nc1ccc2c(c1)OCO2	19
Cc1noc(C)c1NC(=O)Nc1ccc2c(c1)C(=O)N([C@@H](C)CO)C[C@H](C)[C@H](CN(C)C)O2	1
C[C@@H]1CCCCO[C@@H](CN(C)S(=O)(=O)c2ccc(Cl)cc2)[C@@H](C)CN([C@H](C)CO)C(=O)c2cc(NC(=O)CCCN(C)C)ccc2O1	21
C[C@@H]1CCCCO[C@H](CN(C)C(=O)Nc2ccc(C(F)(F)F)cc2)[C@@H](C)CN([C@H](C)CO)C(=O)c2cc(NC(=O)Nc3ccc(F)cc3)ccc2O1	51
Cc1noc(C)c1NC(=O)N(C)C[C@H]1Oc2ccc(NC(=O)CCN3CCOCC3)cc2C(=O)N([C@H](C)CO)C[C@H]1C	11
Cc1nc(SCC(=O)Nc2ccc(I)cc2)nc2c1CCCC2	-13
C[C@@H]1CN([C@H](C)CO)C(=O)Cc2cc(NS(=O)(=O)c3ccc(Cl)cc3)ccc2O[C@H]1CN(C)S(=O)(=O)c1ccccc1	1
COC(=O)c1cc(OC)c(OC)cc1NC(=S)N1CCC(C(N)=O)(N2CCCCC2)CC1	-17
CC(=O)c1ccccc1OCC(O)CNC1CCCC1 (stereo unspecified)	-6
C[C@H](CO)N1C[C@H](C)[C@H](CN(C)Cc2ccc(Oc3ccccc3)cc2)Oc2ccc(N(C)C)cc2CC1=O	-4
Cc1ccc(OCCn2cncn2)c([N+](=O)[O-])c1	8
CC(C)C[C@](O)(C(=O)OCc1ccc(O[C@@H]2O[C@H](CO)[C@@H](O)[C@H](O)[C@H]2O)cc1)[C@H](O)C(=O)OCc1ccc(O[C@@H]2O[C@H](CO)[C@@H](O)[C@H](O)[C@H]2O)cc1	39
C[C@H](CO)N1C[C@H](C)[C@H](CN(C)S(C)(=O)=O)Oc2c(NS(=O)(=O)c3cn(C)cn3)cccc2C1=O	24
C[C@@H]1CN([C@H](C)CO)C(=O)Cc2cc(NC(=O)NC3CCCCC3)ccc2O[C@H]1CN(C)C(=O)Nc1ccc(F)cc1	-13
CS(=O)(=O)N(CC(=O)Nc1ccccc1-c1ccccc1)c1ccc2c(c1)OCCO2	-7
C[C@@H]1CN([C@@H](C)CO)C(=O)c2cc(NS(=O)(=O)c3cccs3)ccc2O[C@@H]1CN(C)Cc1ccncc1	-1
O=C(CSc1nc2c(c(C(F)(F)F)n1)CCCC2)Nc1cccc(Cl)c1Cl	11
CC(C)NC(=O)N(C)C[C@@H]1Oc2c(NC(=O)Nc3ccc(C(F)(F)F)cc3)cccc2C(=O)N([C@@H](C)CO)C[C@H]1C	15

By substructure: the compounds so far with a nitro group on carbon
Molecule	NOMO-1 viab
COc1ccccc1N(CC(=O)Nc1cccc([N+](=O)[O-])c1C)S(C)(=O)=O	9
Cc1ccc(OCCn2cncn2)c([N+](=O)[O-])c1	8

Screening results: PubChem BioAssay, Broad Institute
